D2 ag = Beta-Arrestin HTS for Positive Allosteric Modulators of the Human D2 Dopamine Receptor: Agonists; 0.084% of 360,000 active; activation, % (concentration not given with the values); DiscoveRx PathHunter D2 beta-arrestin, luminescence, 90 min; 100% = 57 uM dopamine signal; D(2) dopamine receptor (Homo sapiens), P14416; in the data active = activation above about 40%; inconclusive = about 15% to 40%; inactive = below about 15%; note: compound concentration not given in the record; the text of the record calls up to 30% inactive
Target sequence (P14416 whole entry, looked up): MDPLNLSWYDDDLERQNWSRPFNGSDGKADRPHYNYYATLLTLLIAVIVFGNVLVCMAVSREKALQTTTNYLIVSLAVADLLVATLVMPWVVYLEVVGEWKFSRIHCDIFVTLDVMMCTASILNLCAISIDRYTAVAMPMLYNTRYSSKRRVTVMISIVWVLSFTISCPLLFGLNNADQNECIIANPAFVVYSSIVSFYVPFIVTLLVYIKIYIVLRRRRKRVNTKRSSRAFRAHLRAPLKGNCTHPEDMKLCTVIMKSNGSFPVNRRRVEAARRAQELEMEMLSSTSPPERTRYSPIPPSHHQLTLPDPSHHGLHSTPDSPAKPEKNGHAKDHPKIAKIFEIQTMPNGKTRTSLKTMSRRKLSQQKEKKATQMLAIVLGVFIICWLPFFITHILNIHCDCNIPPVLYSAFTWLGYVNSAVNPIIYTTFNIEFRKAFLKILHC
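DiscoveRx PathHunter D2 beta-arrestin cells (2,100/well) attached overnight, then compound-stimulated 90 min at 37 C in HBSS/10 mM HEPES/0.1% Tween-20 buffer; beta-galactosidase complementation read by luminescence after 1 h at ambient temperature. Dopamine 57 uM final (EC100) as control.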
PINK1 expr mod = A Quantitative High throughput Screen to Identify Chemical Modulators of PINK1 Expression; PINK1 immunofluorescence, high-content cytometry, 24 h; Potency, µM (highest dose often 76.6 µM), without a hit: top-dose activation (PINK1 increase), actives largely listed as activators; 0.2% of 410,000 active; active = well fitted activation curve with a large enough effect; inconclusive = small, poorly fitted or top-dose-only effect; inactive = flat fitted curve, though single readings scatter; cell line not stated here;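 note: potency is the fitted concentration of half-maximal effect; % of control where 0% means no effect; nearly all actives have a fitted effect of over 65% in size; a mitochondrial uncoupler was the plate control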
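Stable cell line treated 24 h with compounds at 5 concentrations (CCCP controls), then fixed and immunostained for PINK1 plus nuclear and cell stains; PINK1 immunofluorescence quantified by laser-scanning microplate cytometry.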
D2 PAM = Beta-Arrestin HTS for Positive Allosteric Modulators of the Human D2 Dopamine Receptor: Potentiators; 0.23% of 360,000 active; potentiation, % (test concentration not listed); DiscoveRx D2 beta-arrestin cells, luminescence, 90 min; 100% = 57 uM dopamine signal; active = potentiation of 50% or more; inconclusive = 30% to 50%; inactive = 30% or less;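 note: compound concentration not given in the record; tested on top of an EC20 dose of dopamine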
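PathHunter beta-arrestin assay in DiscoveRx D2 cells. Compounds were added with an EC20 of dopamine (50 nM final) for 90 min at 37 deg C. Luminescence was read 1 h after detection reagent, with 57 uM dopamine as the EC100 control.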
TRPML1 agonist = qHTS for Agonists of the Human Mucolipin Transient Receptor Potential 1 (TRPML1). Mucolipin-1 (Homo sapiens), Q9GZU1. TRPML1-expressing cells, Ca2+ dye fluorescence, FDSS; host cell line not named in the record; reference of the full effect not given here. 0.12% of 410,000 active. activation, % (no concentration beside the values). AID 624414, 2012; in the data active = activation above about 50%; inconclusive = about 30% to 50%; inactive = below about 30%; note: 0% is about no effect; the text of the record puts the active cut at 80%
Target sequence (Q9GZU1 whole entry, looked up): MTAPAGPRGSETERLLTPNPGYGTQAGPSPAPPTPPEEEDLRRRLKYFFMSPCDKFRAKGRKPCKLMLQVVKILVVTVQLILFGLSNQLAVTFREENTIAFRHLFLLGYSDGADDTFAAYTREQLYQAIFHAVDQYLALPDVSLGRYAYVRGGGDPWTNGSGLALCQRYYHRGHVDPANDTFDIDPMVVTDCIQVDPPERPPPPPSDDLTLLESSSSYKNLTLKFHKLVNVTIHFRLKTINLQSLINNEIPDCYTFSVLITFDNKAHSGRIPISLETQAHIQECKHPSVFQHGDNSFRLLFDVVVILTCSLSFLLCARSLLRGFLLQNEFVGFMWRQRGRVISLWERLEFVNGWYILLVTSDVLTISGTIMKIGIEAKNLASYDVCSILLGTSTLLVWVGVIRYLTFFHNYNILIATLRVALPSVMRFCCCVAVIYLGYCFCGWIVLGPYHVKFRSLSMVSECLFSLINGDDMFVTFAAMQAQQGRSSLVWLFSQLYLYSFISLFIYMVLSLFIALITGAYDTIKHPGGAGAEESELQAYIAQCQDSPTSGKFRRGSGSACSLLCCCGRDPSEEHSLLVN
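Calcium fluorescence on an FDSS kinetic reader gave the read-out. Tet-induced TRPML1-DL cells were plated overnight, dye-loaded (Ca8 with quencher, 45-90 min, room temperature, dark), then read 110 s after compound addition, and again 110 s after 4uM final 54-4 (EC80).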
CtBP-E1A inh = qHTS Assay for Inhibitors of the CtBP/E1A Interaction | AlphaScreen GST-E1A/His-CtBP binding, 1536-well; active compounds read low; control for the full effect not named in the record | 0.49% of 340,000 active | activity change, % (no concentration beside the values) | AID 651724, 2012; in the data active means activity change below about -65%; inconclusive means about -30% to -65%; inactive means above about -30%; note: % is set by controls: 0 for no effect and ±100 for the full control effect
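GST-E1A and His-tagged CtBP (125 nM each as 5X stock) were preincubated with pin-transferred compound for 2 h at 37 °C in the dark, then glutathione donor and nickel acceptor beads were added for 1 h before AlphaScreen reading.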
Six1-Eya2 blk = qHTS Assay for Inhibitors of the Six1/Eya2 Interaction; Homeobox protein SIX1 (Homo sapiens) + Protein phosphatase EYA2 (Homo sapiens), …; 0.56% of 360,000 active; AID 651725, 2012; activity change, % (no concentration beside the values); AlphaScreen GST-Six1/His-Eya2 binding, biochemical; active compounds read low; control for the full effect not named in the record; in the data active = activity change below about -65%; inconclusive = about -30% to -65%; inactive = above about -30%; note: % is set by controls: 0 for no effect and ±100 for the full control effect
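Six1/Eya2 binding was read as AlphaScreen signal after compounds were pinned into GST-Six1 plus His-tagged Eya2 (5X stock 250/500 nM) in pH 8.0 Tris/NaCl/TCEP buffer, beads added, then incubated 1 h, 37 C, dark.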
Starred values were filed as active, the others as inactive; ? = inconclusive; / = not tested or not shown; [ ] = another dose, or the depositor's remark.

molecule	D2 ag	PINK1 expr mod	D2 PAM	TRPML1 agonist	CtBP-E1A inh	Six1-Eya2 blk
Cc1cc(C(=O)N/N=C/c2c(C)n(C)c3ccccc23)n[nH]1	-3.3	0.2%	-3.0	-0.4	-9.2	-1.2
COc1cc(C(O)c2nc(-c3ccc(N(C)C)cc3)cs2)ccc1F (configuration not stated)	6.5	8.8%	-9.4	-1.3	-21.6	?
COc1ccc(OC)c(/C=N/N=C(\N)c2nonc2N)c1	-4.4	1.6%	-16.0	-0.7	/	-3.3
CCC(C)[C@H](N)c1cn([C@@H](Cc2ccc(O)cc2)C(=O)N2CCNCC2)nn1 (some centres not stated)	-1.5	0.7%	2.4	-0.1	-7.6	-8.7
CC(C)c1nnc2c(N(C)S(=O)(=O)c3ccccc3)nc3ccccc3n12	-0.6	0.5%	3.2	-0.6	3.3	6.3
COc1ccc(-n2cc(-c3ccc(Cl)cc3)[nH]c2=S)cc1	-5.9	6.4%	-12.3	-0.9	/	0.9
CCn1cnc2c1c(=O)n(CC(=O)Nc1ccc3c(c1)OC(F)(F)O3)c(=O)n2Cc1ccccc1	0.0	0.4%	11.7	0.3	2.8	-5.7
O=C(NCCCN=C1NS(=O)(=O)c2ccccc21)c1ccc(S(=O)(=O)N2CCOCC2)cc1	-1.1	-2.1%[38.3 µM]	-9.1	0.4	0.9	4.0
C=CCNCC#CCOc1ccc(OC)cc1	0.1	2.0%	-22.2	0.5	-0.8	1.1
CCCCNC(=O)c1ccc(CS(=O)(=O)c2ccc(OC)cc2)o1	6.7	0.4%	-0.5	1.1	8.2	2.3
COC(=O)c1ccc(N2CCOCC2)c(NC(=O)c2ccc3c(c2)OCO3)c1	-4.7	-0.2%	1.3	0.0	1.4	-1.3
CC(C)(C)C1=C(C#N)C(c2ccc3c(c2)OCO3)C(C#N)=C(N)O1 (configuration not stated)	0.4	-2.5%	1.5	0.9	-2.2	1.0
CCCOP(=O)(c1ccc(N(C)C)cc1)C(O)c1ccc(Cl)cc1Cl (configuration not stated)	-0.9	0.2%	-9.4	0.1	-7.9	-3.2
COC(=O)c1cc(NC2c3ccccc3C(=O)N2c2cccnc2)cc(C(=O)OC)c1 (configuration not stated)	3.2	0.7%	-3.5	0.3	-1.1	-7.1
CC(=O)c1cc(-c2ccc(F)cc2)n(CCC(=O)Nc2cccnc2)c1C	-4.4	0.0%	-13.1	-0.8	-3.1	-0.6
Cc1ccc2oc(C(=O)N3CCN(Cc4nccn4C)CC3)c(C)c2c1	-2.8	-0.4%	-15.7	-0.6	2.7	1.9
CCCn1c(SCC(=O)NCC(=O)Nc2ccc(F)c(F)c2F)nc2ccccc2c1=O	-2.2	-0.2%	-11.1	2.3	3.6	9.0
CCOC(=O)CSc1nnc(NC(=O)c2ccc3c(c2)OCO3)s1	-3.5	2.2%	-17.9	0.0	3.3	3.0
Cc1cc(C(=O)NCc2ccc(S(N)(=O)=O)cc2)ccc1[N+](=O)[O-]	1.4	0.2%	13.4	-0.1	1.7	1.8
C#CCNc1cc(C)nc2ncnn12	-0.9	2.3%	-0.2	0.4	4.6	8.2
O=C(CCC(=O)OCC(=O)c1ccc(Br)cc1)Nc1ccc(Br)c2cccnc12	-1.7	-1.2%	-24.0	0.3	5.1	1.0
CCCCOCCCNC(=O)C[C@@H]1C[C@@]2(C(=O)OCC)CCCC=C2N(Cc2ccc(Cl)cc2Cl)C1=O	/	?	/	0.3	-0.9	1.8
Cc1cc(C)nc(SCc2nnc(SCC(=O)Nc3cc(C(F)(F)F)ccc3Cl)o2)n1	-1.4	1.8%[38.3 µM]	-15.5	0.9	-4.3	4.9
CS(=O)(=O)c1nc(-c2ccccc2)cc(-c2ccccc2)c1C#N	-0.6	-0.9%	-10.7	1.7	8.1	0.4
COCCOC(=O)C1=C(C)NC2=C(C(=O)CC(C)(C)C2)C1c1cc2c(cc1Br)OCO2 (configuration not stated)	-2.1	-1.2%[38.3 µM]	-21.3	0.1	1.5	-1.3
CC(C)c1nnc(NC(=O)c2ccc(N3C(=O)CCC3=O)cc2)s1	1.5	1.0%	-0.9	0.1	0.4	4.0
COc1cccc(-c2ccc(-c3noc(-c4cccs4)n3)c(OC)n2)c1	0.3	2.3%	19.9	0.0	-5.1	-10.6
Cc1cc(NC(=O)CSc2nnc(C3CC3)n2Cc2ccccc2)no1	-3.5	-0.2%	-28.7	-0.6	-0.8	0.5
Cc1ccc2nsnc2c1S(=O)(=O)N1CCN(C(=O)C2CCCO2)CC1 (configuration not stated)	-0.4	-0.5%	-12.3	0.0	-0.9	2.2
COc1ccc(N=Cc2sc(O)c3ccccc23)cc1	?	4.2%	113.3*	84.4*	14.6	1.9
COC(C[C@H]1O[C@@H]1C(=O)[C@H](C)OCc1ccccc1)OC	0.8	0.8%	-29.9	-0.3	-1.2	9.6
CNc1nc2cccnc2s1	-0.8	2.1%	1.7	0.3	/	3.8
O=c1[nH]c(CN2CCN(S(=O)(=O)/C=C/c3ccccc3)CC2)nc2cc(Cl)ccc12	1.9	-0.3%	7.1	0.7	-4.9	-5.5
O=C(N/N=C/c1ccsc1)C1CC1	-1.8	-0.7%	-3.0	1.3	4.2	4.3
OC[C@@H]1CN(Cc2ccc3c(c2)OCO3)C[C@H](n2cnc3c(N4CCCC4)ncnc32)O1	-3.5	-0.2%	-9.4	-0.6	0.1	-5.1
Cc1cc(C(=O)NC(=S)Nc2cccc(NC(=O)C(C)C)c2)ccc1[N+](=O)[O-]	-1.4	-1.4%	-27.6	-0.7	4.0	-0.6
O=C(c1cc(S(=O)(=O)N2CCOCC2)c(Cl)cc1Cl)N1CCN(S(=O)(=O)c2cccc(F)c2)CC1	-1.3	1.8%	3.3	0.9	-5.2	4.7
CCN1CCCC1CNC(=O)c1ccccc1Cl (configuration not stated)	-1.3	-3.3%	-13.3	-0.1	-1.4	4.3
O=C(Cc1ccc2c(c1)OCCO2)Nc1cc(Cl)ccc1N1CCOCC1	-1.7	14.7%	2.2	3.3	1.8	-0.3
COc1cccc(S(=O)(=O)N(C)C[C@H]2Oc3ncc(Br)cc3C(=O)N([C@H](C)CO)C[C@H]2C)c1	-8.8	1.2%	2.7	-0.6	6.7	4.9
Cc1ccc(N=Cc2c(C)[nH]n(-c3ccccc3)c2=O)nc1	-1.0	1.8%	-0.2	1.0	5.5	-3.0
CC(O)(CS(=O)(=O)Cc1ccccc1)C(=O)Nc1cccc(C(F)(F)F)c1 (configuration not stated)	-0.5	7.3%[38.3 µM]	-10.0	0.4	1.0	0.4
COc1ccc(CCN2CC(C(=O)N(C)Cc3ccc(C)o3)CCC2=O)cc1 (configuration not stated)	-0.2	-0.1%	-2.9	-0.6	-1.7	1.7
O=C(COC(=O)c1cnccn1)c1ccc2ccccc2c1	-5.2	1.5%	-5.1	0.2	1.4	8.5
NC(=O)c1ccsc1NC(=O)COC(=O)C1=NNC(=O)CC1	-5.1	3.8%	-11.1	-1.1	/	4.3
CC(C)(C)c1ccc(C(=O)NCCCNC(=O)c2ccccn2)cc1	-3.1	-1.0%	-6.2	1.6	-9.5	-15.1
CC1Cc2ccccc2N1C(=O)CSc1ncccn1 (configuration not stated)	-0.8	0.7%	-0.3	0.5	-2.8	7.1
O=C(COc1ncnc2ccccc12)Nc1cc(S(=O)(=O)N2CCOCC2)ccc1Cl	0.5	8.3%	-4.7	3.4	6.6	1.6
CC(=NNC(=S)Nc1ccccc1)c1ccccn1	-11.0	-1.6%	-17.6	-0.4	?	-89.0*
Clc1ccccc1C1CC(c2ccccc2)=Nc2ccccc2N1 (configuration not stated)	-0.9	18.3%	-2.7	1.5	-3.7	-10.2
COc1ccc(/C(C)=N\NC(=O)CNC(=O)C(c2ccccc2)c2ccccc2)cc1OC	-1.5	2.7%	-8.5	-0.8	0.7	0.6
O=C(CN(Cc1cccs1)C(=O)c1csnn1)NC1CCCC1	-4.7	-0.7%	13.0	-0.6	3.1	3.1
COc1ccc(N(CCCN2C(=O)c3cccc4cccc(c34)C2=O)C(=O)c2cccnc2)cc1	-6.3	-1.4%	-7.8	-0.5	0.0	-9.7
N#Cc1sc(NCc2cccc(Cl)c2)nc1Cl	-1.1	?	-3.5	3.5	7.8	7.0
CC(=O)Nc1ccc(Nc2ccc3c4c(cc(=O)n3C)-c3ccccc3C(=O)c24)cc1	-2.8	-0.7%	-5.6	0.9	?	?
C[C@H](NC(=O)c1nc[nH]c1C(=O)NC[C@@H](C)O)c1ccccc1	-3.0	-1.4%	/	/	-11.1	0.3

Remaining list, next part:
molecule	D2 ag	PINK1 expr mod	D2 PAM	TRPML1 agonist	CtBP-E1A inh	Six1-Eya2 blk
C=CCN(N=Nc1cccc([N+](=O)[O-])c1)c1cccc([N+](=O)[O-])c1	-1.1	2.4%[38.3 µM]	-2.0	2.3	?	?
O=[N+]([O-])c1ccc(-c2ccn[nH]2)o1	1.2	2.5%	-1.6	0.5	-3.5	2.1
Cc1nnc(SCC(=O)Nc2nnc(SCc3cccc(Br)c3)s2)s1	-1.5	0.5%	4.2	1.3	-3.8	-8.2
CCCOc1ccc(NC(=O)CC2C(=O)N(CC)C(=S)N2CCNC(C)=O)cc1 (configuration not stated)	-1.2	1.5%	0.8	1.0	9.5	1.5
N#Cc1ccsc1NC(=O)CN1CCCCCC1	-1.9	-0.7%	-2.0	-1.0	3.3	-1.0
COc1ccc(-n2ncc3c2CC(C)(C)CC3NC(=O)c2ccnn2C)cc1 (configuration not stated)	2.5	-1.4%	4.1	-0.6	2.1	0.1
Cc1cccc(C(=O)N2CCC(=O)N([C@H](COCc3ccc(Cl)cc3)Cc3ccccc3)CC2)c1	/	9.7%	/	0.5	0.4	-3.3
N#Cc1ccc(NC(=O)CCc2ccc(S(=O)(=O)N3CCOCC3)cc2)cc1	-0.6	/	-34.7	-0.3	8.4	-0.2
Cc1cc(C)cc(NC(=O)Nn2cnnc2)c1	-0.7	2.9%	-5.8	0.1	-2.0	-1.8
O=C(O)Cc1ccc(-n2cccc2)cc1	-0.1	3.1%	-5.6	-0.4	-0.3	?
COc1ccc(-c2csc(NC(=O)CSCC(=O)Nc3cc(C)on3)n2)cc1	5.3	0.4%	-12.0	0.4	15.8	-11.8
COc1ccc(-c2c([C@H]3[C@H]4C=CC[C@@H](C)[C@@H]4C(=O)N3Cc3ccccc3)ccc3ccccc23)cc1OC	-3.7	5.0%	-10.9	1.5	-15.2	-23.3
